UUG fidelity: modulators of start codon recognition fidelity in yeast | S. cerevisiae UUG-firefly luciferase reporter, luminescence/redox ratio | activity score, % at 18.7 µM | 350,000 tested, 0.13% active;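 active = replicate mean at a twofold rise or more, about +100% in these data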;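 also: firefly luciferase made from a UUG start codon reports start codon fidelity; reporter light over untreated wells divided by growth signal over untreated wells; some hits fall short of that in this replicate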
Starred values were filed as active, the others as inactive. These rows are one share of the data (hit frequency here may not be typical).

SMILES	UUG fidelity
O=C(C[C@@H]1CC[C@@H]2[C@H](COC[C@H](O)CN2C(=O)Nc2ccc(Cl)cc2)O1)NCc1ccncn1	6
CCC(=O)Nc1ccc2c(c1)OC[C@H](C)N(C(=O)CC1CC1)C[C@H](C)[C@@H](OC)CN(C)C2=O	6
CO[C@H]1CN(C)C(=O)c2cc(NC(=O)C3CCC3)ccc2OC[C@H](C)N(Cc2ccc(F)cc2)C[C@H]1C	5
COc1ccc(C#Cc2ccc3c(c2)[C@H]2[C@H](CCN2C(=O)CN2CCOCC2)[C@H](CO)N3C)cc1	17
COc1cccc(C(=O)N2C[C@@H]3[C@H](c4ccccc42)[C@H](CO)N3Cc2cccnc2)c1	-9
CC(=O)N1[C@@H](CO)[C@H](c2ccccc2)[C@@H]1CN(C(=O)c1ccccc1)C(C)C	6
C[C@@H]1CN([C@H](C)CO)C(=O)c2cc(NS(=O)(=O)c3ccccc3)ccc2O[C@@H]1CN(C)Cc1ccc(Cl)c(Cl)c1	7
COc1ccc(S(=O)(=O)N2CCCCN3[C@H](C2)[C@H](c2ccc(C4=CCCC4)cc2)[C@@H]3CO)cc1	16
CO[C@@H]1CN(C)C(=O)c2ccc(NS(=O)(=O)c3cn(C)cn3)cc2OC[C@@H](C)N(Cc2ccc(C(F)(F)F)cc2)C[C@H]1C	1
C[C@H](CO)N1C[C@H](C)[C@@H](CN(C)S(=O)(=O)c2cn(C)cn2)Oc2c(NS(C)(=O)=O)cccc2C1=O	4
COCC(=O)N1[C@@H](CO)[C@@H]2c3ccccc3N(C)C[C@@H]21	1
CCC(=O)N1CC[C@@H]2[C@@H](CO)Nc3ccc(C#Cc4ccccc4)cc3[C@@H]21	-15
O=C(C[C@@H]1CC[C@H]2[C@@H](COC[C@@H](O)CN2C(=O)c2ccncc2)O1)Nc1ccc(-c2ccccc2)cc1	-3
CN1CCN(C(=O)C[C@@H]2CC[C@@H]3[C@H](COC[C@@H](O)CN3Cc3ccc4c(c3)OCO4)O2)CC1	-1
O=C(c1cccc(F)c1)N1CCCCN2[C@H](C1)[C@H](c1ccc(-c3ccncc3)cc1)[C@@H]2CO	-4
COc1ccc(NC(=O)Nc2ccc3c(c2)[C@@H]2C[C@@H](CC(=O)N(C)C)O[C@@H](CO)[C@@H]2O3)cc1	7
CNC(=O)C[C@H]1CC[C@@H]2[C@H](COC[C@H](O)CN2C(=O)Nc2cccc(OC)c2)O1	-3
CN1C[C@H]2[C@@H](c3ccccc31)[C@H](CO)N2C(=O)c1ccccn1	11
Cc1noc(C)c1NC(=O)N(C)C[C@H]1Oc2c(NS(=O)(=O)c3cn(C)cn3)cccc2C(=O)N([C@@H](C)CO)C[C@H]1C	5
O=C(C[C@H]1CC[C@@H]2[C@H](COC[C@@H](O)CN2C(=O)c2ccncc2)O1)NC1Cc2ccccc2C1	0
C[C@@H]1CN([C@@H](C)CO)C(=O)c2cc(NS(C)(=O)=O)ccc2O[C@@H]1CN(C)C(=O)NC1CCCCC1	-12
CCC(=O)N1C[C@H](C)[C@@H](OC)CN(C)C(=O)c2cc(NC(=O)C3CCCCC3)ccc2OC[C@@H]1C	2
CCCNC(=O)NC[C@@H]1[C@@H](c2ccc(C3=CCCC3)cc2)[C@@H](CO)N1C(C)=O	-9
Cc1ccc(S(=O)(=O)N(C)C[C@@H]2Oc3ccc(NC(=O)C4CC4)cc3CC(=O)N([C@@H](C)CO)C[C@@H]2C)cc1	11
COC(=O)C[C@@H]1CC[C@H]2[C@@H](COc3ccc(NC(=O)Nc4cccc(C#N)c4)cc3C(=O)N2C)O1	17

Gathered by group: those above containing an aryl methoxy group (5)
SMILES	UUG fidelity
COc1ccc(C#Cc2ccc3c(c2)[C@H]2[C@H](CCN2C(=O)CN2CCOCC2)[C@H](CO)N3C)cc1	17
COc1cccc(C(=O)N2C[C@@H]3[C@H](c4ccccc42)[C@H](CO)N3Cc2cccnc2)c1	-9
COc1ccc(S(=O)(=O)N2CCCCN3[C@H](C2)[C@H](c2ccc(C4=CCCC4)cc2)[C@@H]3CO)cc1	16
COc1ccc(NC(=O)Nc2ccc3c(c2)[C@@H]2C[C@@H](CC(=O)N(C)C)O[C@@H](CO)[C@@H]2O3)cc1	7
CNC(=O)C[C@H]1CC[C@@H]2[C@H](COC[C@H](O)CN2C(=O)Nc2cccc(OC)c2)O1	-3

Additional compounds.
SMILES	UUG fidelity
O=C(Nc1ccc(F)cc1)N1CCCCN2[C@H](C1)[C@H](c1ccc(-c3cccc(F)c3)cc1)[C@@H]2CO	8
O=C(Nc1cccc(F)c1)N1C[C@@H]2[C@H](c3ccccc31)[C@H](CO)N2C(=O)Cc1ccccc1	11
O=C(NC1Cc2ccccc2C1)[C@H]1[C@H](CO)[C@H]2Cn3c(cccc3=O)[C@H]2N1C(=O)C1CC1	-7
O=C(Nc1ccccc1)N1CCCCN2[C@@H](CO)[C@@H](c3ccc(-c4ccncc4)cc3)[C@@H]2C1	-13
CCC(=O)Nc1ccc2c(c1)OC[C@@H](C)N(Cc1ccccc1)C[C@@H](C)[C@@H](OC)CN(C)C2=O	-10
C[C@H]1CN([C@@H](C)CO)C(=O)c2cccc(NC(=O)NC3CCCCC3)c2O[C@H]1CN(C)S(=O)(=O)c1ccccc1	3
CN(C[C@H]1N[C@@H](CO)[C@@H]1c1ccc(C2=CCCC2)cc1)C(=O)c1ccc(F)cc1	-20
CC(=O)N1CCCCN2[C@H](C1)[C@@H](c1ccc(-c3cccc(C)c3)cc1)[C@@H]2CO	23
Cc1ccccc1S(=O)(=O)N1CCCCN2[C@@H](CO)[C@H](c3ccc(-c4ccccc4)cc3)[C@@H]2C1	-13
C[C@@H]1CN([C@H](C)CO)C(=O)c2cccc(NC(=O)NC3CCCCC3)c2O[C@H]1CN(C)S(C)(=O)=O	0
C[C@@H]1CN([C@@H](C)CO)C(=O)c2cccc(NC(=O)C3CCOCC3)c2O[C@H]1CN(C)S(=O)(=O)c1cccs1	1
COCC(=O)NC[C@@H]1N[C@@H](CO)[C@H]1c1ccc(C2=CCCC2)cc1	-4
C[C@@H]1CN([C@@H](C)CO)C(=O)Cc2cc(NC(=O)Nc3ccccc3)ccc2O[C@@H]1CN(C)Cc1ccc2c(c1)OCO2	21
O=C(NC[C@@H]1[C@H](c2ccccc2)[C@@H](CO)N1CC1CCCC1)c1cccnc1	-15
Cc1noc(C)c1NC(=O)Nc1ccc2c(c1)C(=O)N([C@@H](C)CO)C[C@@H](C)[C@H](CN(C)S(C)(=O)=O)O2	-3
O=C(C[C@H]1CC[C@H]2[C@@H](COC[C@@H](O)CN2C(=O)c2ccccn2)O1)N1CCN(c2ccccc2)CC1	7
COc1cccc(S(=O)(=O)N2CC[C@@H]3[C@@H](CO)Nc4ccc(-c5ccc(C#N)cc5)cc4[C@@H]32)c1	-8
C[C@@H](NC(=O)C[C@@H]1C[C@@H]2c3cc(NC(=O)C4CCC4)ccc3O[C@@H]2[C@@H](CO)O1)c1ccccc1	-14
Cn1cnc(S(=O)(=O)N2CC[C@@H]3[C@H](CO)Nc4ccc(C#Cc5cccc(F)c5)cc4[C@@H]32)c1	-4
Cc1noc(C)c1NC(=O)Nc1ccc2c(c1)C(=O)N([C@@H](C)CO)C[C@@H](C)[C@H](CN(C)Cc1ccc3c(c1)OCO3)O2	-19
COc1ccc(NC(=O)Nc2cccc3c2O[C@@H](CN(C)CC2CCCCC2)[C@@H](C)CN([C@@H](C)CO)C3=O)cc1	0
CN1c2ccc(-c3cccc(F)c3)cc2[C@H]2[C@H](CCN2C(=O)CC2CC2)[C@@H]1CO	-9
CO[C@@H]1CN(C)C(=O)c2ccc(NS(=O)(=O)c3cn(C)cn3)cc2OC[C@H](C)N(CC2CC2)C[C@H]1C	-2
O=C(c1ccc(F)cc1)N1C[C@@H]2[C@H](c3ccccc31)[C@H](CO)N2Cc1ccc2c(c1)OCO2	0
O=C(c1ccc(F)cc1)N1[C@@H](CO)[C@@H]2c3ccccc3NC[C@@H]21	-2

4 entries from above, sorted by SMILES length, descending:
SMILES	UUG fidelity
COc1ccc(NC(=O)Nc2cccc3c2O[C@@H](CN(C)CC2CCCCC2)[C@@H](C)CN([C@@H](C)CO)C3=O)cc1	0
COC(=O)C[C@@H]1CC[C@H]2[C@@H](COc3ccc(NC(=O)Nc4cccc(C#N)c4)cc3C(=O)N2C)O1	17
Cn1cnc(S(=O)(=O)N2CC[C@@H]3[C@H](CO)Nc4ccc(C#Cc5cccc(F)c5)cc4[C@@H]32)c1	-4
O=C(c1cccc(F)c1)N1CCCCN2[C@H](C1)[C@H](c1ccc(-c3ccncc3)cc1)[C@@H]2CO	-4

Further compounds.
SMILES	UUG fidelity
O=C(c1ccc(F)cc1)N1CC[C@@H]2[C@@H](CO)Nc3ccc(-c4ccccc4F)cc3[C@@H]21	3
O=C(Nc1ccccc1)N1C[C@@H]2[C@H](c3ccccc31)[C@@H](CO)N2C(=O)c1ccncc1	-13
CN1C(=O)c2cc(NC(=O)c3cccc(F)c3)ccc2OC[C@@H]2O[C@H](CC(=O)NCc3ccccc3Cl)CC[C@@H]21	-9
Cc1ccc(S(=O)(=O)Nc2ccc3c(c2)CC(=O)N([C@@H](C)CO)C[C@@H](C)[C@@H](CN(C)CC2CC2)O3)cc1	-2
O=C(Nc1cccc(F)c1)N1CCCCN2[C@H](CO)[C@@H](c3ccc(C#CC4CC4)cc3)[C@@H]2C1	12
CCNC(=O)[C@@H]1[C@@H](CO)[C@@H]2Cn3c(ccc(C4=CCCC4)c3=O)[C@H]1N2Cc1ccncc1	-1
C[C@@H]1CN([C@H](C)CO)C(=O)c2cc(NC(=O)c3ccncc3)ccc2O[C@@H]1CN(C)C(=O)NC1CCCCC1	-7
Cc1noc(C)c1NC(=O)Nc1ccc2c(c1)C(=O)N([C@@H](C)CO)C[C@H](C)[C@@H](CN(C)S(=O)(=O)c1cn(C)cn1)O2	-5
C[C@@H]1CN([C@H](C)CO)C(=O)c2cccc(NS(=O)(=O)c3ccc(Cl)cc3)c2O[C@H]1CN(C)C(=O)Nc1ccccc1	3
CN(C)C(=O)c1cccc(-c2ccc3c(c2)[C@@H]2[C@@H](CCN2C(=O)C2CCCCC2)[C@H](CO)N3)c1	-5
C[C@H](CO)N1C[C@H](C)[C@H](CN(C)Cc2ccc(C(=O)O)cc2)Oc2ccc(NS(=O)(=O)c3ccc(Cl)cc3)cc2C1=O	5
COCC#Cc1ccc([C@@H]2[C@@H](CO)N3CCCCN(C(=O)NC4CCCC4)C[C@@H]23)cc1	6
Cc1noc(C)c1NC(=O)N(C)C[C@H]1Oc2c(NC(=O)Nc3cccc4ccccc34)cccc2C(=O)N([C@H](C)CO)C[C@H]1C	-5
C[C@@H]1CN([C@@H](C)CO)C(=O)c2cccc(NC(=O)C3CC3)c2O[C@@H]1CN(C)Cc1ccccc1	-4
COc1ccccc1-c1ccc([C@H]2[C@@H](CO)N3CCCCN(C(=O)CN4CCOCC4)C[C@@H]23)cc1	-11
COCC#Cc1ccc([C@H]2[C@@H](CO)N3CCCCN(C(=O)NC4CCCC4)C[C@H]23)cc1	2
CCC(=O)N1CC[C@@H]2[C@H](CO)Nc3ccc(-c4ccc(F)cc4)cc3[C@@H]21	-18
CN(C)CC(=O)Nc1ccc2c(c1)[C@H]1C[C@H](CC(=O)NCc3ccc(Cl)cc3)O[C@@H](CO)[C@H]1O2	10
C[C@H](CO)N1C[C@H](C)[C@@H](CN(C)C(=O)Nc2ccc(C(F)(F)F)cc2)Oc2c(NC(=O)c3cnccn3)cccc2C1=O	-9
O=S(=O)(c1ccccc1)N1CCCCN2[C@H](CO)[C@H](c3ccc(C#Cc4ccccc4)cc3)[C@H]2C1	1
Cc1ccc(S(=O)(=O)N2C[C@@H](O)COC[C@@H]3O[C@H](CC(=O)NCCN4CCCCC4)CC[C@H]32)cc1	-6
CN(C)C(=O)c1cccc(-c2ccc([C@@H]3[C@H]4CN(C(=O)C5CCCC5)CCCCN4[C@H]3CO)cc2)c1	-4
C[C@@H]1CN([C@@H](C)CO)C(=O)c2cc(NC(=O)Nc3cccc4ccccc34)ccc2O[C@@H]1CN(C)C(=O)Nc1ccc(C(F)(F)F)cc1	-13
COc1ccccc1CN1[C@H](CO)[C@@H]2c3ccccc3N(C(=O)c3ccncc3)C[C@@H]21	-14
O=C(NC1CCCC1)N1CCCCN2[C@H](C1)[C@@H](c1ccc(/C=C/c3ccccc3)cc1)[C@@H]2CO	-6

Gathered by group: the compounds so far containing two or more sulfur atoms (2)
SMILES	UUG fidelity
C[C@H](CO)N1C[C@H](C)[C@@H](CN(C)S(=O)(=O)c2cn(C)cn2)Oc2c(NS(C)(=O)=O)cccc2C1=O	4
C[C@@H]1CN([C@@H](C)CO)C(=O)c2cccc(NC(=O)C3CCOCC3)c2O[C@H]1CN(C)S(=O)(=O)c1cccs1	1

Next part
SMILES	UUG fidelity
CO[C@H]1CN(C)C(=O)c2ccc(NC(=O)Nc3cccc(F)c3)cc2OC[C@@H](C)N(C(=O)Nc2c(C)noc2C)C[C@H]1C	75
CO[C@H]1CN(C)C(=O)c2ccc(NC(=O)C3CC3)cc2OC[C@@H](C)N(CC2CC2)C[C@H]1C	36
CN1c2ccc(C#Cc3cccnc3)cc2[C@H]2[C@H](CCN2C(=O)c2cccnc2)[C@@H]1CO	-2
C[C@H]1CN([C@@H](C)CO)C(=O)c2ccccc2-c2ccccc2CO[C@H]1CN(C)S(=O)(=O)c1ccccc1	8
CCCN1[C@@H]2c3ccc(C4=CCCC4)c(=O)n3C[C@@H]2[C@@H](CO)[C@@H]1C(=O)NCC	20
O=C(NC[C@H]1[C@@H](c2ccccc2)[C@H](CO)N1Cc1cccnc1)c1ccccn1	12
COc1ccc(CN(C)C[C@@H]2Oc3ccc(NC(=O)Nc4c(C)noc4C)cc3CC(=O)N([C@H](C)CO)C[C@H]2C)cc1	1
O=S(=O)(NC[C@@H]1N[C@@H](CO)[C@H]1c1ccccc1)c1ccccc1	1
C[C@@H]1CN([C@H](C)CO)C(=O)c2cccc(NS(=O)(=O)c3cn(C)cn3)c2O[C@@H]1CN(C)C(=O)Nc1ccc(C(F)(F)F)cc1	-2
CN1[C@H](C(=O)Nc2ccccc2)[C@@H](CO)[C@@H]2Cn3c(ccc(-c4ccccc4)c3=O)[C@@H]21	16

Exported with the structure last: part of the list above.
UUG fidelity	mol
8	C[C@H]1CN([C@@H](C)CO)C(=O)c2ccccc2-c2ccccc2CO[C@H]1CN(C)S(=O)(=O)c1ccccc1
20	CCCN1[C@@H]2c3ccc(C4=CCCC4)c(=O)n3C[C@@H]2[C@@H](CO)[C@@H]1C(=O)NCC

Compound activity: PubChem BioAssay, Broad Institute
